High-throughput results (PubChem BioAssay)
Mtb betalactam = beta-lactam sensitization of Mtb H37Rv; inhibition, % at 25 µM; AID 434955; 0.27% of 330,000 active; M. tuberculosis H37Rv growth with meropenem, percent inhibition; hits of this screen are not shown here;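 active = about 74% or more and at least 40 points above the plate without the antibiotic, then above 30% in a dose series; inconclusive = first-round hits that could not be retested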;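 note: growth measured after seven days incubation then overnight dye step; 0% = bacteria only wells and 100% = bacteria with antibiotic; twin plates without the antibiotic show which effects depend on it; some results filed as inactive read as strong as hits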
RecA intein inh = blocks M. tuberculosis RecA intein splicing; inhibition, %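 (about 9 µM by stock and volumes)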; P9WHJ3; 0.75% of 290,000 active; cell-free RecA intein splicing, fluorescence; in the data active = inhibition above about 30%; inconclusive = no clear call, values can overlap the other calls;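 note: 0% = vehicle wells and 100% = reference inhibitor control wells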
Target sequence (P9WHJ3 whole entry, looked up): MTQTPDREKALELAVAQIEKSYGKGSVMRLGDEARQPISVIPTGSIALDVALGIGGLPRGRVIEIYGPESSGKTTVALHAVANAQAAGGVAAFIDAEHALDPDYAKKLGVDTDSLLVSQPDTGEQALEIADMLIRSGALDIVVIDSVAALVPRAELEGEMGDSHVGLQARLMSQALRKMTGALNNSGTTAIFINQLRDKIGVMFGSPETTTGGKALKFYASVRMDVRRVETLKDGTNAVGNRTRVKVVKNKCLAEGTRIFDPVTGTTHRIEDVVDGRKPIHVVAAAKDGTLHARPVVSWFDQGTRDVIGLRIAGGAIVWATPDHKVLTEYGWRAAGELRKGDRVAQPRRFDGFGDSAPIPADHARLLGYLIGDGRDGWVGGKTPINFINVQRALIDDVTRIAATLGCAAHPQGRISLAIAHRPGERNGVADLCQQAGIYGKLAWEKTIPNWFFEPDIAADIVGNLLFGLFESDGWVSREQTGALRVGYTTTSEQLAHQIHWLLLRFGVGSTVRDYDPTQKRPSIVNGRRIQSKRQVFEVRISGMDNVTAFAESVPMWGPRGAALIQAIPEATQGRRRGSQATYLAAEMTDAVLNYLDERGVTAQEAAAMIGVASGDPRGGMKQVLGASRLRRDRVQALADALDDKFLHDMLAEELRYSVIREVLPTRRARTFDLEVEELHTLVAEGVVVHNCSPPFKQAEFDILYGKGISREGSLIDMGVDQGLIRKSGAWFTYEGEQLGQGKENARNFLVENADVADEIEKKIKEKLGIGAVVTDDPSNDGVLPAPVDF
YopH PTP inh = inhibitors of Yersinia enterocolitica YopH tyrosine phosphatase; fluorescence Ex485/Em525; inhibition, %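 (about 10 µM by stock and volumes)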; 0.16% of 140,000 active;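 active = inhibition of 50% or more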;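 note: controls were vehicle for no effect and minimum signal wells for full effect; inactives centre near -20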
Mtb H37Rv = M. tuberculosis H37Rv growth inhibitors, H37Rv strain (AID 1626). M. tuberculosis H37Rv growth inhibition; higher % means a stronger effect. inhibition, % at 10 µM, or IC50 in µM where a hit was titrated. 0.95% of 220,000 active;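 active = confirmed in a dose series; inconclusive = inhibition above 80% but not taken into the dose series; inactive = below 80% or under 30% at every dose of the series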;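 note: bacteria incubated seven days before Alamar blue readout; 0% = bacteria only wells and 100% = bacteria with antibiotic wells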
Arbovirus anti = antivirals against arbovirus infection | arbovirus infection cell-based antiviral screen | inhibition, % at 10 µM | 0.37% of 200,000 active;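 active = inhibition from about 30%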;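 note: bluetongue infection of BSR cells; cell survival read as ATP light after 72 h; 0% = infected wells without compound and 100% = uninfected wells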
Arbovirus anti repeat = recorded beside Arbovirus anti, whose call it bears; inhibition, %; measured here: 10K subset replicate screen; many hits read low in the repeat;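 first of two repeat runs on a subset; 0% = infected and 100% = uninfected wells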
* marks the source's active call; other numbers are inactive results; u = inconclusive; x = no result given. Some of the compounds tested, so the mix of outcomes need not match the whole.

SMILES | Mtb betalactam | RecA intein inh | YopH PTP inh | Mtb H37Rv | Arbovirus anti | others
COc1cc(/C=N/N=C(\N)c2nonc2N)cc(OC)c1O | -4 | -2.4 | x | -1% | x
Cc1cc(C)c2sc(N)nc2c1 | 22 | -5.3 | x | x | 1
COc1ccc(NC(=O)CSc2nc3[nH]ncc3c(=O)n2-c2ccccc2OC)cc1OC | -5 | 2.8 | -18 | 2% | -1
CC1CCCN(S(=O)(=O)c2ccc(N(C(=O)c3cnccn3)C(C(=O)NC3CCCCC3)c3cccs3)cc2)C1 (centres undefined) | 53 | 6.2 | -35 | 62% | -8
CC(C)OCCCn1c(=O)c2ccccc2n2c(CCC(=O)NCc3ccccn3)nnc12 | -8 | 0.3 | x | x | x
Oc1ccc(CN2CCCCC2)nc1-c1ccccc1 | 3 | -0.6 | -12 | -15% | 17
CC(C)(C)c1ccc(COn2c(=O)c(-c3ccco3)[n+]([O-])c3ccccc32)cc1 | 4 | -14 | 0 | -4% | -3
CCc1cccc2c(C(=O)COC(=O)c3cccc(S(=O)(=O)N(C)C4CCCCC4)c3)c[nH]c12 | 5 | 0.8 | -6 | 9% | 8
Cc1onc(-c2ccccc2)c1C(=O)NC(=S)NNC(=O)c1cccnc1 | 7 | -4.9 | -11 | -3% | -2
O=C(CCC1CCCN(C(=O)c2ccc3cc[nH]c3c2)C1)NCc1ccc(F)c(F)c1 (centres undefined) | 17 | 2.1 | x | 0% | 0
CCOC(=O)C1CCCCN1Cc1cc(OC)ccc1OC (centres undefined) | 5 | 0.4 | -17 | -7% | -10
CCCCC(=O)Nc1nnc(S(=O)(=O)N2CCCc3ccccc32)s1 | -2 | -0.4 | x | x | x
CC(=O)c1cc(-c2ccccc2)n(CC(=O)Nc2ccc(C)c(C)c2)c1C | 5 | 7.2 | -10 | 5% | 2
Nc1c(-c2ccccc2)nnn1Cc1ccccc1 | 5 | -1.5 | x | x | x
COc1cc2cc(CN(CCO)S(=O)(=O)c3ccccc3Cl)c(=O)[nH]c2cc1OC | -7 | -3.6 | -27 | -6% | 5
Cc1cccc(CNS(=O)(=O)c2ccc(-c3ccc(=O)[nH]n3)s2)c1 | -1 | -1.6 | x | x | x
CC(C)NC[C@H](O)COc1cccc2[nH]ccc12 | -3 | -1.9 | x | -6% | x
COc1ccc(C(NC(=O)C2CCCCC2)c2c(O)ccc3ccccc23)cc1 (centres undefined) | 0 | 6.4 | -7 | 8% | -1
CCOC(=O)CSc1nnc(Cn2nnc(-c3ccccc3)n2)n1C | 1 | -7.4 | -16 | -8% | -5
Nc1ccc2nc(-c3ccccn3)[nH]c2c1 | -2 | 1.2 | -17 | -9% | 0
COc1ccc(NC(=O)N(Cc2ccc(C)cc2)Cc2ccccn2)c(OC)c1 | 0 | -0.3 | -36 | 12% | -3 | Arbovirus anti repeat=-2
O=C(Cn1c(=O)cnc2ccccc21)N1CCN(S(=O)(=O)c2ccccc2Br)CC1 | -12 | -1.5 | x | x | x
CCOc1cc2[nH]c(=S)n(CCc3ccc(OC)c(OC)c3)c(=O)c2cc1OCC | -1 | 3.1 | -20 | -2% | 6
CSCCC(NC(=O)c1ccccc1Br)C(=O)NCC(c1ccco1)N1CCCCC1 (centres undefined) | 4 | 0.2 | x | x | x
Cc1ccc(-n2c(C)cc(C=C(C#N)C#N)c2C)cc1 | -8 | 0.1 | -37 | -3% | 1
COc1ccc(NC(=O)Nc2ccc(N3CCOCC3)c3nonc23)c(OC)c1 | -1 | 0.5 | x | -9% | -2
CN(C)[C@@H](CO)c1nnc([C@H](CCC(=O)O)NC(=O)C2CCNCC2)o1 | -6 | -2.6 | x | -13% | -1
COc1ccc(/C=C(\C#N)C(=O)OCC(=O)Nc2ccc(C(C)(C)C)cc2)cc1 | 2 | 2.7 | -11 | -2% | 3
O=C(Nc1ccc(Cl)cc1)Nc1csc([N+](=O)[O-])c1 | 72 | -0.4 | x | 79µM* | x
O=C(Nc1cccc([N+](=O)[O-])c1)Nc1ccc2c(c1)CCC2 | 0 | -2.7 | x | x | x
CC(C)(C)c1cc(NC(=O)COC(=O)c2nccnc2N)n(-c2ccccc2)n1 | u | 1.7 | x | x | x
O=[N+]([O-])c1ccc(OCC(O)CNCCNc2nccc(C(F)(F)F)n2)cc1 (centres undefined) | -6 | 1.1 | x | -10% | x
Cc1nn2c(N3CCN(c4ccccn4)CC3)cc(C(C)C)nc2c1-c1ccccc1 | x | 0.0 | -21 | 9% | -1
O=C(NN=C1CCCCCC1)NC1CCCCC1 | -4 | 1.3 | 2 | 6% | 2
COc1ccc(Cn2c(CCCO)nc3ccccc32)cc1OC | -6 | 2.1 | -22 | 5% | 4
COc1ccc(-c2cc(-c3ccc(O)cc3)nc(N)c2C#N)cc1 | 70 | 5.4 | x | x | x
CC(C)COC(=O)n1c(SCC(=O)N(C)C)nc2ccccc21 | 2 | 0.6 | -7 | -7% | -4
C=CCC(CC(O)COCCC)C(=O)NNC(=S)Nc1ccccc1 (centres undefined) | -1 | -12 | x | -4% | x
COc1ccccc1N1C(=NC(=O)C2CCCCC2)SC2CS(=O)(=O)CC21 (centres undefined) | 0 | 1.5 | x | x | x
O=C(CCc1nc(-c2ccccc2)no1)NCC1CCCO1 (centres undefined) | 13 | -2.0 | -41 | x | -2
OCCC1CN(CC2CCCCC2)CCN1C1CCCC1 (centres undefined) | -3 | -0.7 | x | x | x
CN(C)CCCNS(=O)(=O)c1ccc(Oc2ncc(C(F)(F)F)cc2Cl)cc1 | 2 | 4.4 | -33 | 0% | -24
O=C(C1=C(O)C(=O)N(c2ncccn2)C1c1ccc(F)cc1)c1ccco1 (centres undefined) | -9 | -1.1 | x | -1% | x
CC(C)CCc1noc(CN2CCN(c3ccc(Cl)cn3)CC2)n1 | 11 | 0.8 | x | 10% | 10
CN1CCN(C(CC(=O)Nc2cccc(O)c2)C(=O)O)CC1 (centres undefined) | -3 | 4.5 | x | 1% | 1
CN1C(=O)C2(C(C#N)=C(N)Oc3n[nH]c(-c4ccc(Cl)cc4)c32)c2ccccc21 (centres undefined) | -1 | 28 | -47 | -6% | 0
O=C(c1cccs1)N1CCN(S(=O)(=O)c2ccccc2)CC1 | u | 6.9 | -21 | -15% | 9
CCOCCCNC(=O)C(c1ccc(C)cc1)N(Cc1ccc2c(c1)OCO2)C(=O)c1ccccn1 (centres undefined) | 0 | -9.8 | x | -11% | -1
O=C1C2C3C=CC(CC3)C2C(=O)N1c1ccc([N+](=O)[O-])cc1 (centres undefined) | 3 | -1.4 | x | x | x
COc1ccc(NC(=O)c2ccc([N+](=O)[O-])s2)c([N+](=O)[O-])c1 | -3 | -1.8 | x | 43% | -5
CN(C)/C=C/C(=O)c1ncc(C(F)(F)F)cc1Cl | -2 | 0.3 | x | -6% | 19
CC(=O)Nc1cc(C(=O)N(C)Cc2ccccc2)ccc1S(=O)(=O)c1ccc(C)cc1 | -1 | 1.8 | x | x | x
COc1ccc(S(=O)(=O)NCC(=O)N(CC(=O)NCc2ccco2)Cc2ccccc2)cc1 | -2 | -2.4 | x | x | x
Cc1ccc(N2C(=O)C3CC3C2=O)cc1 (centres undefined) | -4 | -0.4 | x | 1% | 3
COc1ccc(-c2nc3n(n2)C(c2ccccc2Cl)C(C(N)=O)=C(C)N3)cc1 (centres undefined) | 8 | 0.6 | -3 | -5% | 4 | Arbovirus anti repeat=-1
C=CCc1cccc(CNc2cnc3ccccc3c2)c1O | -9 | 1.3 | x | x | x
NC(=O)CC[C@@H]1NC(=O)[C@H](CO)NC(=O)c2cc([N+](=O)[O-])cc(I)c2NCC[C@@H](C(N)=O)NC(=O)[C@H](Cc2ccc(O)cc2)NC1=O | -2 | 1.0 | -15 | x | 8
O=C(COC(=O)CCN1C(=O)c2cccc([N+](=O)[O-])c2C1=O)NCc1ccccc1 | 0 | -3.9 | x | 0% | 9
Cc1cc(C)c(NC(=O)Cn2nnc(C(=O)NCc3ccc4c(c3)OCO4)c2N)c(C)c1 | 4 | -1.0 | x | x | x
CC(CC(=O)N(C)c1c(N)n(Cc2ccccc2)c(=O)[nH]c1=O)c1ccccc1 (centres undefined) | -10 | -2.8 | x | x | x

Of the compounds above, these contain a tert-butyl group:
SMILES | Mtb betalactam | RecA intein inh | YopH PTP inh | Mtb H37Rv | Arbovirus anti | others
CC(C)(C)c1ccc(COn2c(=O)c(-c3ccco3)[n+]([O-])c3ccccc32)cc1 | 4 | -14 | 0 | -4% | -3
COc1ccc(/C=C(\C#N)C(=O)OCC(=O)Nc2ccc(C(C)(C)C)cc2)cc1 | 2 | 2.7 | -11 | -2% | 3
CC(C)(C)c1cc(NC(=O)COC(=O)c2nccnc2N)n(-c2ccccc2)n1 | u | 1.7 | x | x | x

An excerpt from above in order of formula weight, ascending:
SMILES | Mtb betalactam | RecA intein inh | YopH PTP inh | Mtb H37Rv | Arbovirus anti | others
O=C1C2C3C=CC(CC3)C2C(=O)N1c1ccc([N+](=O)[O-])cc1 (centres undefined) | 3 | -1.4 | x | x | x
COc1ccc(NC(=O)c2ccc([N+](=O)[O-])s2)c([N+](=O)[O-])c1 | -3 | -1.8 | x | 43% | -5
CC(CC(=O)N(C)c1c(N)n(Cc2ccccc2)c(=O)[nH]c1=O)c1ccccc1 (centres undefined) | -10 | -2.8 | x | x | x
Cc1cc(C)c(NC(=O)Cn2nnc(C(=O)NCc3ccc4c(c3)OCO4)c2N)c(C)c1 | 4 | -1.0 | x | x | x
COc1ccc(S(=O)(=O)NCC(=O)N(CC(=O)NCc2ccco2)Cc2ccccc2)cc1 | -2 | -2.4 | x | x | x

More results follow.
SMILES | Mtb betalactam | RecA intein inh | YopH PTP inh | Mtb H37Rv | Arbovirus anti | others
O=C(CCN1C(=O)C2C3C=CC(C3)C2C1=O)NCCc1ccccc1 (centres undefined) | 1 | -0.9 | -42 | 1% | 6
CC1(OCON)CCCc2ccccc21 (centres undefined) | -6 | 1.2 | x | x | x
O=C(NCCCCl)C1CC(=O)N(CCc2ccc(F)cc2)C1 (centres undefined) | -3 | -3.0 | x | x | x
Cc1ccc(C(=O)CCC(=O)Nc2ccccc2C)c(C)c1 | 1 | 0.8 | x | x | x
CC(CNC(=O)C1CCCCC1)NC(=O)C1CCCCC1 (centres undefined) | 1 | 6.2 | -30 | -9% | 6 | Arbovirus anti repeat=-2
O=C(NC1CCCCCC1)C(=S)NCc1ccccc1 | -2 | 3.2 | x | 5% | 2
CC1=NN(C(=O)CCc2ccccc2)C(c2ccccc2)C1 (centres undefined) | -1 | 0.8 | x | 4% | -2
CCOC(=O)c1[nH]c2c(c1-c1ccccc1)C(=O)CC(c1ccc(OC)c(OC)c1)C2 (centres undefined) | 2 | 1.1 | -10 | 14% | -7
O=C(C1CC(c2ccc(F)cc2)=NO1)N1CCC2(CC1)OCCO2 (centres undefined) | -12 | 1.4 | -14 | -5% | 0
O=C(NC(=S)Nc1ccccc1N1CCN(C(=O)c2ccccc2)CC1)c1ccccc1F | 78 | 0.5 | x | x | x
O=C(O)CCN1CC2([N+](=O)[O-])CC=C(OCCO)C([N+](=O)[O-])(C1)C2 (centres undefined) | 2 | -3.0 | x | 0% | -1
Cc1ccc(S(=O)(=O)NCC(C)n2nc(C)cc2C)cc1 (centres undefined) | -1 | 3.3 | x | x | x
O=C(O)C(Cc1ccccc1)N1C(=O)c2cccc3cccc(c23)C1=O (centres undefined) | 4 | 4.3 | x | 1% | 1
COc1ccc(C2=Nn3c(nnc3-c3cccnc3)SC2)cc1 | x | x | -30 | -3% | -16
COCCNC(=O)c1ccc(N2CC3CC(C2)c2cccc(=O)n2C3)c(NC(=O)c2cc(OC)cc(OC)c2)c1 (centres undefined) | -4 | 3.0 | x | x | x
Cc1ccc(C)c(NC(=O)C(=O)NCc2ccccn2)c1 | 7 | -1.5 | -8 | 9% | 5
Cc1ccc(S(=O)(=O)Nc2ccccc2C(=O)Nc2sccc2C(=O)NN(C)C)cc1 | -4 | 0.4 | -41 | 7% | -2
Cc1onc(-c2ccccc2)c1-c1ccnc(N)n1 | -3 | 0.8 | x | -2% | x
C=CCOC(=O)C1=C(C)NC(=O)NC1c1ccc(N(C)C)cc1 (centres undefined) | 1 | -6.4 | x | x | x
O=c1c(Cc2ccccc2)c(O)ccn1Cc1ccc2c(c1)OCO2 | 0 | 2.4 | x | -6% | -3
CN(C)c1cccc(C(=O)OCC(=O)NC2CCCC2)c1 | 2 | -1.4 | x | x | x
C=CCn1c(NCCO)nc2sc3c(c2c1=O)CCC3 | 3 | -0.6 | -34 | -10% | 7
C=CCn1c(SCC(=O)O)nnc1-c1ccc(C(C)(C)C)cc1 | 9 | 1.2 | -30 | -3% | 14
CCOC(=O)C1CCN(S(=O)(=O)c2ccc(CN3C(=O)c4cccnc4C3=O)cc2)CC1 | 0 | -3.5 | x | x | x
Cc1ccc2[nH]cc(S(=O)(=O)c3ccc(C(C)C)cc3)c(=O)c2c1 | -2 | -1.0 | x | x | x
